Assay outcomes: PubChem, ICCB-Longwood Screening Facility, Harvard Medical School
HCMV UL50-53 inh: disrupts HCMV UL50-UL53 complex binding; HTRF UL50-UL53 interaction, normalized percent inhibition; inhibition, % (test concentration not listed); hit rate 0.15% among 190,000; AID 1918969;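 active = both replicates at 50% or more, plus weaker picks with an unusually low signal ratio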;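 also: stock transfer was 100 nL into about 20 µL; 0% = negative control wells and 100% = wells with untagged competitor protein; inactives centre near -12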
Sa growth inh: blocks Staphylococcus aureus growth; relative growth, % (test concentration not listed); S. aureus RN4220 growth, OD600, 20 h, 42 °C; hits give low values; AID 720641; hit rate 0.53% among 170,000;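 active = growth at 42 °C up to 50% and 20 or more points under that at 30 °C, or under 10% at both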;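 also: 300 nL library stock went into each well; scaled to the means of positive and negative controls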
GIV Gai3 FP: inhibitors of GIV GBA-motif binding to rat Galpha-i3 | P08753 | hit rate 0.42% among 210,000 | percent of control (FP), % (test concentration not listed) | Galpha-i3/FITC-GIV peptide fluorescence polarization, 90 min; hits give low values; scaled: aluminum fluoride 0%, vehicle 100%;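 active = replicate mean at 85% of control or lower, very high polarization wells dropped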;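 also: wells of about 15 µL received 100 nL stock; the first replicate is given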
Target sequence (P08753 whole entry, looked up): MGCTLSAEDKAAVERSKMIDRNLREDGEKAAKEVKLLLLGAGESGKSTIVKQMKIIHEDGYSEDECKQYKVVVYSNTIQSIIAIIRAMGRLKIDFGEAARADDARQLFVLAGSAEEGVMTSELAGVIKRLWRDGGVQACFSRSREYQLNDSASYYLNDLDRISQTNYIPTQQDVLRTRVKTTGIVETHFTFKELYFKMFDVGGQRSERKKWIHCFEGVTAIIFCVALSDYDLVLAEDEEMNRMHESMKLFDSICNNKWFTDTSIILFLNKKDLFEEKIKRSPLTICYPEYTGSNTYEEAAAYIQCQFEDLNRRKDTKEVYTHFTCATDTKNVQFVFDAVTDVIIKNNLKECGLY
Sa growth inh second temp: further read-out of Sa growth inh, marked with its call; relative growth, %; measured here: growth at 30 °C;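 optical density after 20 h as mean of two plates; 100% = untreated growth and lower means inhibition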
* marks the source's active call; other numbers are inactive results; nt = not tested or not shown. Outcome played no part in choosing rows (roughly 0.83% active in at least one column).

SMILES	HCMV UL50-53 inh	Sa growth inh	Sa growth inh second temp	GIV Gai3 FP
CN1C(=O)CN(S(C)(=O)=O)CC1(C)C(=O)NCC(=O)NCCCN1CCc2ccccc2C1 (stereo unspecified)	1	nt	nt	104
CCNc1ccc(C2(O)C(=O)c3ccccc3C2=O)cc1	-17	87	86	nt
CCOc1ccccc1NC(=O)c1nc2nc(C)cc(C(F)F)n2n1	nt	120	83	102
CCc1cc2c3c(c(=O)oc2cc1OCC(=O)OC)CCCC3	-18	91	80	105
O=C(Nc1ccc2oc(-c3cccnc3)nc2c1)c1cccc(OCc2ccccc2)c1	-18	nt	nt	106
NC(=O)C1(c2ccccc2)CCCC1	-19	91	90	105
Nc1cnc(Sc2ccccc2)c(C(F)(F)F)c1	-2	119	80	107
COc1ccccc1N(C)S(=O)(=O)c1ccc(C(=O)N=c2c3cnn(-c4ccccc4)c3nc3n2CCCCC3)cc1	-10	92	87	nt
Cc1ccc(CN2CC(C(=O)NC(c3nc4ccccc4[nH]3)C(C)C)CC2=O)cc1 (stereo unspecified)	2	116	88	nt
CC(C)(C)C(=O)N1CCC(C(=O)NCc2ccco2)CC1	-14	105	94	nt
Cn1cc(-c2nc(-c3ccccn3)no2)c(=O)c2cc(F)c(N3CCCCC3)cc21	-26	nt	nt	103
CNC(=O)c1ccccc1Sc1cccc2cccc(COC(C)=O)c12	-22	94	88	98
CCN1CCN(C(=O)c2ccc(-c3ccccc3)cc2)CC1	-5	84	96	nt
Cc1c(/C=C/c2nc3ccccc3c(=O)n2CCCO)c2ccccc2n1C	27	nt	nt	107
Cc1nn(Cc2nnc(SCC(=O)C(C)(C)C)o2)c(C)c1Br	-10	99	92	103
COc1cc2c(cc1OC)C(C(=O)Nc1ccc(C)cc1Br)C(c1cccnc1)N(C)C2=O (stereo unspecified)	-13	nt	nt	94
O=C(OCc1cc(=O)oc2cc(O)ccc12)c1ccc(Br)o1	-6	98	80	nt
COc1ccc(NC(=O)C2CCCN2S(=O)(=O)c2ccc3c(c2)CCCC(=O)N3)cc1Cl (stereo unspecified)	nt	72	82	100
CC1CCN(C(=O)Nc2ccccc2C(F)(F)F)CC1	-3	112	90	nt
Cc1cc(=O)[nH]n(-c2ccccc2)c1=O	-26	94	75	104

20 consecutive entries already listed, quoted:
SMILES	HCMV UL50-53 inh	Sa growth inh	Sa growth inh second temp	GIV Gai3 FP
CN1C(=O)CN(S(C)(=O)=O)CC1(C)C(=O)NCC(=O)NCCCN1CCc2ccccc2C1 (stereo unspecified)	1	nt	nt	104
CCNc1ccc(C2(O)C(=O)c3ccccc3C2=O)cc1	-17	87	86	nt
CCOc1ccccc1NC(=O)c1nc2nc(C)cc(C(F)F)n2n1	nt	120	83	102
CCc1cc2c3c(c(=O)oc2cc1OCC(=O)OC)CCCC3	-18	91	80	105
O=C(Nc1ccc2oc(-c3cccnc3)nc2c1)c1cccc(OCc2ccccc2)c1	-18	nt	nt	106
NC(=O)C1(c2ccccc2)CCCC1	-19	91	90	105
Nc1cnc(Sc2ccccc2)c(C(F)(F)F)c1	-2	119	80	107
COc1ccccc1N(C)S(=O)(=O)c1ccc(C(=O)N=c2c3cnn(-c4ccccc4)c3nc3n2CCCCC3)cc1	-10	92	87	nt
Cc1ccc(CN2CC(C(=O)NC(c3nc4ccccc4[nH]3)C(C)C)CC2=O)cc1 (stereo unspecified)	2	116	88	nt
CC(C)(C)C(=O)N1CCC(C(=O)NCc2ccco2)CC1	-14	105	94	nt
Cn1cc(-c2nc(-c3ccccn3)no2)c(=O)c2cc(F)c(N3CCCCC3)cc21	-26	nt	nt	103
CNC(=O)c1ccccc1Sc1cccc2cccc(COC(C)=O)c12	-22	94	88	98
CCN1CCN(C(=O)c2ccc(-c3ccccc3)cc2)CC1	-5	84	96	nt
Cc1c(/C=C/c2nc3ccccc3c(=O)n2CCCO)c2ccccc2n1C	27	nt	nt	107
Cc1nn(Cc2nnc(SCC(=O)C(C)(C)C)o2)c(C)c1Br	-10	99	92	103
COc1cc2c(cc1OC)C(C(=O)Nc1ccc(C)cc1Br)C(c1cccnc1)N(C)C2=O (stereo unspecified)	-13	nt	nt	94
O=C(OCc1cc(=O)oc2cc(O)ccc12)c1ccc(Br)o1	-6	98	80	nt
COc1ccc(NC(=O)C2CCCN2S(=O)(=O)c2ccc3c(c2)CCCC(=O)N3)cc1Cl (stereo unspecified)	nt	72	82	100
CC1CCN(C(=O)Nc2ccccc2C(F)(F)F)CC1	-3	112	90	nt
Cc1cc(=O)[nH]n(-c2ccccc2)c1=O	-26	94	75	104

Continued:
SMILES	HCMV UL50-53 inh	Sa growth inh	Sa growth inh second temp	GIV Gai3 FP
Cn1c(=O)[nH]c(=O)c2cc(C(=O)c3cc(F)ccc3O)cnc21	-52	88	71	nt
COc1ccc(Cl)cc1NC(=O)N1CCN(Cc2cc(=O)n3nc(-c4ccccc4)sc3n2)CC1	nt	76	73	103
CCN(CC)S(=O)(=O)c1ccc(-c2cn3ccccc3n2)cc1	nt	107	72	102
O=S(=O)(c1ccc(F)c(Cl)c1)N1CCC2(CC1)Nc1cc(F)ccc1-n1cccc12	-2	nt	nt	103
O=C(c1noc2c1CCc1sccc1-2)N1CCCCC1	3	97	101	99
Cc1ccc(-c2onc(C)c2C)cc1S(=O)(=O)NC1CCN(Cc2ccccc2)CC1	-10	nt	nt	107
Oc1cccc(-c2nc(-c3cccs3)c(-c3cccs3)[nH]2)c1	-27	99	69	102
O=C(Nc1cccnc1)c1cc(-c2ccc(Cl)cc2)on1	-15	93	90	107
O=C1CCC(=O)N1N1C(=O)c2ccccc2C1=O	5	108	102	106
COC(=O)CC1Oc2ccc(C)cc2-n2cc(-c3ccc(F)cc3)nc21 (stereo unspecified)	10	105	88	104
CC(=O)Nc1ccc(N2CCn3c(nc4ccccc43)C2)cc1	12	nt	nt	110
CC(C)C(Sc1nnc(-c2ccccc2)n1-c1ccccc1)C(=O)NC(N)=O (stereo unspecified)	4	98	88	nt
C#CCOC(=O)Nc1ccc(Oc2ccc(Cl)cc2)nc1	-2	105	73	113
CCCCCn1c(=O)[nH]c2cc(C(=O)NCCCN3CCCCC3CC)ccc2c1=O (stereo unspecified)	-10	nt	nt	104
Cc1ccc(Cl)cc1N1CCN(C(=O)COc2cc(=O)n(C)c3ccccc23)CC1	0	102	91	103
CC1=CC(C)(C)C(C(=O)O)C(C(=O)O)C1 (stereo unspecified)	-10	118	93	nt
CCOc1ccc(-c2cc(C(=O)OC)c3ccccc3n2)cc1	-19	85	79	100
O=C(NC1CCCC1)c1ccc(Cn2c(=O)[nH]c3ccsc3c2=O)cc1	5	101	84	105
Cc1nn2c(Br)c(C34CC5CC(CC(C5)C3)C4)nc2s1	-7	109	96	nt
CCOC(=O)CSc1nnc(CNc2cccc(C(F)(F)F)c2)n1CC	3	121	107	97
O=C(COC(=O)C1CC2CCCC(C1)C2=O)NC1CCCc2ccccc21 (stereo unspecified)	-34	70	92	nt
NC(=O)c1c(NC(=O)c2cc(-c3ccccc3)on2)sc2c1CCCC2	10	105	94	nt
CN=C(Nc1ccc(Cl)cc1)c1cccnc1	2	nt	nt	101
O=C(CN1C(=O)c2ccccc2S1(=O)=O)c1ccc2c(c1)OCCO2	-15	96	88	105
Cn1c(-c2ccc3c(c2)OCO3)cn2cc(-c3ccc(Br)cc3)nc12	nt	85	74	100
O=c1[nH]cnc2sc(-c3ccccc3)cc12	4	90	81	92
CCN1C(=O)c2ccccc2S(=O)c2ccc(C(=O)NCCN3CCN(Cc4ccccc4)CC3)cc21 (stereo unspecified)	16	113	94	112
Cc1nc(CSc2nnc(Cc3cccc4ccccc34)n2N)cs1	-29	93	79	nt
CN(C)/C=N/S(=O)(=O)c1cc(C(F)(F)F)cc(C(F)(F)F)c1	22	92	100	108
COC(=O)c1ccccc1NC(=O)CN(c1ccccc1)S(C)(=O)=O	-1	89	104	97

Single values from the entries so far:
O=C(NC1CCCC1)c1ccc(Cn2c(=O)[nH]c3ccsc3c2=O)cc1 – Sa growth inh second temp: 84
CCN1CCN(C(=O)c2ccc(-c3ccccc3)cc2)CC1 – HCMV UL50-53 inh: -5
COc1ccccc1N(C)S(=O)(=O)c1ccc(C(=O)N=c2c3cnn(-c4ccccc4)c3nc3n2CCCCC3)cc1 – HCMV UL50-53 inh: -10

Further records.
SMILES	HCMV UL50-53 inh	Sa growth inh	Sa growth inh second temp	GIV Gai3 FP
COc1cccc(-c2nc3sc4c(c3c(=O)n2CC(=O)NCCc2ccc(OC)c(OC)c2)CCCC4)c1	-3	nt	nt	100
CC(Oc1ccccc1Br)C(=O)N1CCc2ccccc21 (stereo unspecified)	4	99	87	nt
Cc1ccc2c(c1Br)C(=C(C#N)C#N)C(=O)N2	-22	128	80	132
Cc1noc2nc(C)n(CC(=O)NC3CCCCC3)c(=O)c12	-24	nt	nt	103
O=C(CSc1nc2ccccc2c(=O)[nH]1)c1cc2ccccc2o1	-3	106	90	102
CCC(C)(C)NC(=O)c1ccc2c(=O)n3c(nc2c1)CCC3	-2	99	89	nt
COc1ccc(CCNC(=O)CCn2c(=O)c3ccccc3n(Cc3ccccc3)c2=O)cc1OC	-23	105	92	103
CCOC(=O)CNc1nn2c(=O)c3ccc(C(=O)OC)cc3nc2s1	35	99	98	108
O=C1OCc2ccccc21	29	92	76	110
CCCN(c1ccc(C(C)C)cc1)S(=O)(=O)c1ccc2c(c1)oc(=O)n2CC(=O)OCC	-26	100	86	97
O=c1ccc(S(=O)(=O)N2CCCC2)cn1Cc1nc2ccccc2s1	-28	89	94	nt
CCOc1ccc(N=CNc2ccc(OCC)cc2)cc1	nt	94	84	109
OC(CN1CCC(Cc2ccccc2)CC1)c1c[nH]c2ccc(F)cc12 (stereo unspecified)	-37	nt	nt	108
Cc1cc2nc3s/c(=C/c4cc([N+](=O)[O-])c(N5CCCCC5)cc4N4CCCCC4)c(=O)n3c2cc1C	-16	nt	nt	100
COc1cccc(-c2nc3c(C#N)c[nH]n3c2NC2CCCCC2)c1	6	108	88	104
CCN1/C(=C/c2sc3ccccc3[n+]2CCO)Sc2ccccc21	nt	28	21	116
COc1cccc(CN2CCc3nc(Nc4ccc5c(c4)OCCO5)ncc3C2)c1	nt	115	101	107
CCOC(=O)c1c(Cl)[nH]c2ccccc2c1=O	-28	45	50	101
NC(N)=NS(=O)(=O)c1ccc(NC(=O)c2ccc(Cl)cc2)cc1	-16	89	84	nt
FC(F)(F)c1nc(NC2=NCCCCC2)n[nH]1	-34	94	87	nt
CC(Nc1cccc(C(=O)NC2CC2)c1)C(=O)N1CCNC1=O (stereo unspecified)	-8	104	88	nt
CC1CCN(S(=O)(=O)c2cc(C(=O)Nc3ccc(Br)cc3F)n(C)c2)CC1	nt	103	66	101
O=C(COC(=O)Cc1ccsc1)Nc1ccc(C(F)(F)F)cc1	-22	92	92	nt
Cc1nc2nc(N3C(=O)c4ccc(C(=O)O)cc4C3=O)[nH]n2c(=O)c1Cc1ccccc1	-16	75	86	94
CCN(CC)S(=O)(=O)c1ccc(-c2ccc(S(=O)(=O)N(CC)CC)s2)s1	-7	100	87	98
CCOC(=O)c1ncn(-c2ccccc2)n1	nt	79	83	98
CCc1ccccc1NC(=O)c1cc(S(=O)(=O)N2CCc3ccccc32)ccc1F	nt	124	90	101
COc1cccc(CNC(=O)c2ccc(S(=O)(=O)N3CCCC3)cc2)c1	-20	91	91	nt
Cc1cc(C)n2nc(SCC#N)nc2n1	-1	110	100	99
CCOC(=O)c1sc(N)c(C#N)c1CSc1nc(-c2ccccc2)cs1	-18	111	97	nt
Cc1ccc(-n2c(-c3ccco3)nc3c(cnn3-c3ccccc3C)c2=O)cc1F	5	107	99	104
Cc1cc[n+](Cc2ccccn2)c(N)c1	-4	103	96	nt
C=CCc1c(CCC)nc(SC)[nH]c1=O	0	103	95	100
O=C(c1ccccc1)N(C(=O)c1ccccc1)c1ccccn1	-3	112	110	105
O=C(C1CCCO1)N1CCc2ccccc21 (stereo unspecified)	-13	86	73	105
O=C(Nc1ccc2oc(-c3c(F)c(F)c(F)c(F)c3F)nc2c1)c1cccs1	15	100	92	100
N#Cc1ccccc1OCC(=O)NC12CC3CC(CC(C3)C1)C2	-29	92	92	nt
COc1ccc(C2C(=O)N(C3CCC(C)CC3)CC(=O)N2CCc2ccccc2)cc1OC (stereo unspecified)	nt	111	90	99
